Source: PubChem BioAssay (Broad Institute)
STK33 inh – inhibitors of purified STK33 kinase, primary screen, biochemical, ADP-Glo luminescence, homogeneous, cell-free. MBP phosphorylation. hit rate 0.073% among 320,000. inhibition, % at 10 µM;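 active = inhibition at or above 25%, using the most active replicate where run in duplicate; inactive = inhibition below 25%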
Target sequence (Q9BYT3 whole entry, looked up): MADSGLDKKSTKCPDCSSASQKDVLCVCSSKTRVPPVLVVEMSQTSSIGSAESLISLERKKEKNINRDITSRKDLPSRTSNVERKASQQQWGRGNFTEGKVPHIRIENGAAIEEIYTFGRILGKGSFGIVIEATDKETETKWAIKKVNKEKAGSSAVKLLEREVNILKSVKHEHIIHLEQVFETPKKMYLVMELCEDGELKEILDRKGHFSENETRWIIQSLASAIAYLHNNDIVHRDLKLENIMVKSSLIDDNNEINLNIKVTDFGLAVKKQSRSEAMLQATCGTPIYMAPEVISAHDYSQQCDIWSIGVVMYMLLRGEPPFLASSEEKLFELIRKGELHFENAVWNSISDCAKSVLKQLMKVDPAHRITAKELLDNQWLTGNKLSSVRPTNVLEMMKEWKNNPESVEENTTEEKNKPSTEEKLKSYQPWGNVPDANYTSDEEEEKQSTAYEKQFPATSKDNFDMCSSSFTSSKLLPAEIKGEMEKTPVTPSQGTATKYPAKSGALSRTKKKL
The depositor's hits bear a star.

SMILES	STK33 inh
O=C(CN(c1ccc(F)cc1)S(=O)(=O)c1ccc2c(c1)OCCO2)Nc1cccnc1	0.2
COc1ccc2nc(/C=N/NC(=O)[C@@H]3CCCN3C(=O)OC(C)(C)C)ccc2c1	-1.4
O=C(O)C1CCCCC1C(=O)Nc1ccc(-c2ccccc2)cc1 (configuration not stated)	0.9
OCCN1CCN(CC#CCn2c3ccccc3c3ccccc32)CC1	1.0
O=C(O)CCC(=O)NNC(=O)COc1ccc2ccccc2c1Br	1.6
CC1CCN(C(=O)C2CCCN(S(C)(=O)=O)C2)CC1 (configuration not stated)	-1.4
C=CCc1c(C)nc(-c2ccccc2)nc1N/N=C/c1ccccc1	-1.3
CCOC(=O)C1=C(c2ccccc2)O/C(=C(/C(=O)OC)C(F)(F)F)S1	0.1
CCOc1nnc(C)c2c(C)n(-c3cccc(Cl)c3)nc12	-2.3
O=C(c1ccccc1F)N1CCN(c2ccc([N+](=O)[O-])c3cccnc23)CC1	-1.8
CC(C)(C)c1ccc(-c2ncccc2O)cc1	1.3
O=C(NC(Cc1ccccc1)C(=O)O)/C(=C\c1ccccc1)NC(=O)c1ccco1 (configuration not stated)	-0.1
N#C/C(=C\c1ccccc1C(=O)O)c1nc2ccccc2[nH]1	0.0
COc1cccc(-c2nnc(SCC(=O)NCc3ccc4c(c3)OCO4)n2Cc2ccco2)c1	-0.6
CC(=O)/C(N=Nc1cc(C)ccc1O)=C(\C)O	-0.5
CCC(=O)c1ccc(OCC(=O)OCC(=O)Nc2c(C)n(C)n(-c3ccccc3)c2=O)cc1	-1.8
Cc1cc(C(=O)Nc2ccc(Nc3ccccc3)cc2)ccc1[N+](=O)[O-]	-0.6
Cc1ccccc1Cn1c(=O)n(C)c(=O)c2sccc21	1.0
CCCCOc1ccc(S(=O)(=O)N2CCN(C)CC2)cc1	-2.3
Cn1c(=O)[nH]c(=O)c2c1nc(NCCN)n2CCOc1ccccc1	-2.1
O=C(COC(=O)CCc1nc2ccccc2c(=O)[nH]1)Nc1ccc(Cl)cn1	-0.8
O=C(c1ccc(Cl)s1)N1CCc2ccccc21	0.5
C=C(C)C(=O)Nc1ccc(OC(F)(F)C(F)F)c(NC(=O)C(=C)C)c1	-1.6
Cc1ccccc1OCC(=O)NNC(=O)CCN1C(=O)c2ccccc2C1=O	-0.6
CN1CCN(c2ccc(CNS(=O)(=O)Cc3cccc(C(F)(F)F)c3)cc2)CC1	-0.2
O=C(Nc1nnc(C2CC2)s1)c1cc(Cl)sc1Cl	1.0
O=C(c1ccoc1)N1CCCC(CO)(CCCc2ccccc2)C1 (configuration not stated)	-0.2
COc1ccc(CC(=O)Nc2ccc(-c3cn4cccc(C)c4n3)cc2)cc1OC	-0.5
Cc1ccc(C(=O)NNC(=O)C(C)Oc2ccc3ccccc3c2)o1 (configuration not stated)	-1.4
Cc1ccc(C)c(S(=O)(=O)N2CCC3(CC2)OCCO3)c1	-1.4

Reformatted with values ahead of the structure: part of the list above.
STK33 inh | mol
-2.1 | Cn1c(=O)[nH]c(=O)c2c1nc(NCCN)n2CCOc1ccccc1
-0.8 | O=C(COC(=O)CCc1nc2ccccc2c(=O)[nH]1)Nc1ccc(Cl)cn1
0.5 | O=C(c1ccc(Cl)s1)N1CCc2ccccc21
-1.6 | C=C(C)C(=O)Nc1ccc(OC(F)(F)C(F)F)c(NC(=O)C(=C)C)c1
-0.6 | Cc1ccccc1OCC(=O)NNC(=O)CCN1C(=O)c2ccccc2C1=O

(next part)
SMILES	STK33 inh
CCCC(=O)c1cc2c(cc1NC(=O)c1cccs1)OCCO2	-2.8
O=C(O)c1ccccc1OCC1CCCO1 (configuration not stated)	-1.3
O=C(CSc1nc(-c2ccccc2)c(-c2ccccc2)[nH]1)N1CCN(S(=O)(=O)c2ccccc2)CC1	-3.3
CCc1ccc(/C=N/N2CCN(c3ccccn3)CC2)cc1	-1.7
Cc1ccc(N(C(=O)CNC(=O)c2ccco2)C(C(=O)NC2CCCCC2)c2cccnc2)cc1F (configuration not stated)	-0.6
COc1ccc(/C=N/NC(=O)c2cccc([N+](=O)[O-])c2)cc1OC(=O)c1ccccc1	-2.3
CCN(CC)C(=O)C[n+]1ccc(C(N)=O)cc1	-1.1
CCOc1ccc(-c2nc(S(=O)(=O)c3ccccc3)c(NC)o2)cc1	-2.4
Cc1cc(C(=O)Nc2ccc(C(=O)O)cc2)c(C)o1	-0.1
O=C(CN1C(=O)c2ccccc2C1=O)NCc1ccc(C(=O)O)cc1	0.2
CC(C)NC(=O)CSc1nc2ccccc2n1-c1ccccc1	0.0
COc1cc(C(=O)NNC(=O)c2ccc(NC(C)=O)cc2)cc(OC)c1OC	-0.4
Cc1noc(C)c1C(=O)Nc1sc2c(c1C(N)=O)CCC2	1.3
CC(/C=N/NC(=O)c1nn(C)c(C)c1Br)=C\c1ccccc1	-0.4
CCC(CC)C(=O)Nc1cc(C(=O)NCCc2ccccc2)ccc1Cl	1.1
Cc1ccc2nc(NC(=O)c3cc(-c4ccco4)nc4ccccc34)sc2c1	-0.7
Cc1ccccc1N(CC(=O)N/N=C/c1ccccc1Cl)C(=O)c1ccccc1	0.1
COc1ccc(CCNC(=O)C2CCCN(S(=O)(=O)c3cc(C)ccc3OC)C2)cc1OC (configuration not stated)	0.2
O=C(NCC(c1ccco1)N1CCc2ccccc2C1)C(=O)Nc1cc(F)ccc1F (configuration not stated)	-1.5
O=Cc1cccn1-c1cccc([N+](=O)[O-])c1	-0.5
COc1ccccc1-c1cc(C(=O)NCCCn2ccnc2)no1	-0.6
CCOc1cc(C(N)=O)cc(Br)c1OCC	1.2
CCOC(=O)N1CCC(NC(=O)C(NS(=O)(=O)c2ccc3c(c2)CCN3C(=O)CC)C(C)C)CC1 (configuration not stated)	0.3
Cc1ccccc1CN1C(=O)[C@H]2Cc3c([nH]c4ccccc34)C(C)(C)N2C1=O	-1.7
O=C(NCCNC(=O)C1CC2CCC1C2)C1CC2CCC1C2 (configuration not stated)	-0.6
CCCn1cc(S(=O)(=O)CC(=O)N2CCc3ccccc32)c2ccccc21	-0.7
COc1ccc(-c2cc(-c3ccccc3)c(C#N)c(S(C)=O)n2)cc1 (configuration not stated)	1.4
CC(=O)Nc1ccc2nc(SCC(=O)NCCOc3ccccc3)sc2c1	-1.1
CCOC(=O)C1CCCN(C(=O)Cn2cnc3c2c(=O)n(C)c(=O)n3C)C1 (configuration not stated)	-1.3
COc1ccc(NC(=S)NCCc2ccccc2)c(C)c1	-3.4
Cc1cc(C(=O)COC(=O)Cc2n[nH]c(=O)c3ccccc23)c(C)n1-c1ccc2c(c1)OCO2	-0.9
O=C(Nc1ccc(Nc2ccccc2)cc1)c1ccccc1F	-1.6
OCC1(Cc2cccc(C(F)(F)F)c2)CCN(Cc2cc3ccccc3o2)CC1	-3.3
C=CCSC1=C(C#N)C2(CCCCC2)C(C#N)C(=O)N1 (configuration not stated)	0.6
CC1CC(C)CN(C(=O)c2ccc(CNc3c(N4CCCC4)c(=O)c3=O)cc2)C1 (configuration not stated)	-2.2
Cc1cccc(Nc2nc(NC(C)C)nc(Oc3ccc(=O)n(C)n3)n2)c1	5.5
Cc1cnc(NC(=O)c2cc3ccccc3o2)s1	0.5
CCOC(=O)C1=C(C)N(C2CCCCC2)C(=O)C1	-0.9
O=C(COc1ccc2c(-c3ccccc3)cc(=O)oc2c1)Nc1ccc(CN2CCOCC2)cc1	-2.6
O=[N+]([O-])c1cccc(N(CC2CO2)S(=O)(=O)c2ccccc2)c1 (configuration not stated)	-0.1
Nn1c(Cc2cccc3ccccc23)nnc1SCc1ccccc1	-1.1
COC(=O)N/N=C/c1ccccc1	-0.3
CCCNC(=O)Cn1cnc([N+](=O)[O-])n1	0.1
CCOC(=O)C1CCCN(CCC(=O)Nc2cc(C)ccc2C)C1 (configuration not stated)	-1.5
Cc1cc(C)n(-c2nncc(-c3ccccc3)n2)n1	-1.6
CCC(=O)c1cn(CC(=O)OC)c2ccccc12	-0.1
O=C(NCC1CC1)Nc1cccs1	-0.3
COc1ccc(C)cc1NC(=O)c1cc2c(CO)cnc(C)c2oc1=N	0.0
CCCc1nnc(NC(=O)c2cccs2)s1	-0.5
COc1ccc(C2SCCN2C(=S)Nc2cccc(Cl)c2)cc1 (configuration not stated)	-0.8
COc1ccc(N(CC(=O)NC2CCCC2)C(=O)CCC(=O)Nc2cc(C)on2)cc1	-0.6
COc1cc(NC(=O)Cn2cnc3sc(C)c(S(=O)(=O)N4CCOCC4)c3c2=O)cc(OC)c1OC	-0.3
COc1cccc(-c2nc(CS(=O)CC(=O)NCc3ccccc3Cl)c(C)o2)c1 (configuration not stated)	-0.5
CCOC(=O)N1CCC(NC(=O)c2cccn3c(=O)c4cc(Br)ccc4nc23)CC1	1.1
Cc1ccc(-c2cc(C(F)(F)F)n3nc(C(=O)NCCCn4ccnc4)cc3n2)cc1C	-1.0
Cc1cccc(NC(=O)CN(C)S(=O)(=O)c2cccc3cccnc23)c1C	0.6
COc1cccc2cc(C(C)N(CCCN3CCOCC3)C(=O)Nc3ccc(Cl)cc3)oc12 (configuration not stated)	-0.6
O=C1CC(=O)C(n2cncn2)C(c2c(F)cccc2Cl)C1 (configuration not stated)	0.5
Cc1cc(C)cc(NC(=O)C2CCN(c3nccs3)CC2)c1	1.3
Cc1c(C(=O)N(Cc2cccc(Br)c2)C2CCS(=O)(=O)C2)oc2ccccc12 (configuration not stated)	-1.5

2 compounds drawn at random from those above:
SMILES	STK33 inh
Cc1cc(C)cc(NC(=O)C2CCN(c3nccs3)CC2)c1	1.3
CCOC(=O)N1CCC(NC(=O)c2cccn3c(=O)c4cc(Br)ccc4nc23)CC1	1.1

Next part:
SMILES	STK33 inh
CC1=NN(C(=O)c2nn(C)cc2Br)C(O)(C(F)(F)F)C1 (configuration not stated)	-0.6
O=C(NC1CCCC1)c1cc(-c2ccc(Cl)cc2)on1	-1.1
C=CCOc1cccc(C2/C(=C(/O)c3ccc4c(c3)CC(C)O4)C(=O)C(=O)N2CCN2CCOCC2)c1 (configuration not stated)	-0.6
Cc1c(NC(=O)C(C)OC(=O)CCOc2ccccc2)c(=O)n(-c2ccccc2)n1C (configuration not stated)	0.3
Nc1cccc(-c2cn3cc(C(F)(F)F)cc(Cl)c3n2)c1	0.0
CCC(=O)Nc1cc(C(F)(F)F)ccc1N1CCCC1	-1.1
COC(=O)COc1ccc(S(=O)(=O)NC2CCCCCC2)cc1	-0.5
COc1ccc(CCNC(=O)C2CC3Cn4c(nc5ccccc54)C3N2c2ccccc2)cc1 (configuration not stated)	0.5
CC(C)=NNc1nc(-c2ccc(N3C(=O)CCC3=O)cc2)cs1	-0.9
CCOC(=O)N1CCN(C(=O)CNC(=O)Cc2ccc(Cl)cc2)CC1	-1.1
CC(C)c1nnc(NC(=O)c2ccc(N3C(=O)CCC3=O)cc2)s1	-0.1
Cc1cc(C)n2nc(C(=O)NCCc3ccccc3)nc2n1	1.7
O=C(COc1ccccc1)Nc1cc(Cl)ccc1Cl	-0.7
CC#CC(=O)N1CCCC(Cc2cccc(OC)c2)(C(=O)OCC)C1 (configuration not stated)	-1.2
Cn1c(SCC(=O)c2ccc3c(c2)OCO3)nnc1C1COc2ccccc2O1 (configuration not stated)	-1.1
COc1cccc(NC(=O)CSc2nnc(Cc3ccc(OC)c(OC)c3)o2)c1	0.3
COc1ccc(S(=O)(=O)NNC(=O)c2ccc(-n3c(C)ccc3C)cc2)cc1	-0.4
COc1ccc(OC)c(NC(=O)CN2CCN(C(=O)c3ccco3)CC2)c1	0.0
COc1ccc(C(=O)Nc2ccc(SC(F)F)cc2)cc1	-0.6
COc1cc(OC)cc(-n2nnnc2SCC(=O)NCc2cccs2)c1	1.2
CC(=O)c1ccc(N2CCN(C(=O)c3ccc4c(c3)OCO4)CC2)cc1	-1.3
CCN(CC)S(=O)(=O)c1ccc(C)c(NC(=S)NC2CCCCC2)c1	-0.1
C#CCNC(=O)/C=C/c1ccc(C)cc1	0.1
CCN(CC(=O)Nc1ccc(OC)cc1)C(=O)c1ccc(NS(=O)(=O)c2ccc(C(C)=O)cc2)cc1	-0.8
CCn1c(SCC(N)=O)nc2sc3c(c2c1=O)CCN(C)C3	0.9
CCCN1C2CCCC1CC(NC(=O)c1ccc(F)cc1)C2 (configuration not stated)	-1.2
CCOC(=O)c1c(C)n(-c2ccc(C)cc2)c2c(C(C(C)=O)C(=O)O)c(Br)c(O)c(O)c12 (configuration not stated)	-4.8
Cc1ccccc1/C=N/Nc1ccc(Cl)nn1	0.5
CC(C)n1cc(C(N)=S)c(=O)n(Cc2ccccc2)c1=O	7.7
CCc1ccc2c(COC(=O)CNS(=O)(=O)c3ccc(NC(C)=O)cc3)cc(=O)oc2c1	0.5
CCCn1c(SCC(=O)Nc2nnc(C)s2)nnc1-c1ccoc1C	-0.8
CCOC(=O)C1=C(Cc2ccc(C)cc2)C(=O)c2ccccc2C1=O	0.8
S=c1nc(C2CC2)[nH]c2ccccc12	-1.4
c1ccc(CSc2nnc(NC3=NCCCCC3)s2)cc1	-0.8
Cc1ccc(Sc2cc(C)nc(-c3ccccn3)n2)cc1	-2.4
CCCCNC(C(=O)Nc1ccc(Cl)c([N+](=O)[O-])c1)c1ccccc1 (configuration not stated)	-0.2
CN(C)c1nc(SCCOC(=O)Nc2ccccc2)nc(N(C)C)n1	0.2
CCN1CCN(c2cc(=O)n(Cc3ccc(F)cc3)c(=O)[nH]2)CC1	-0.4
O=[N+]([O-])c1cccc(Nc2nc(Cl)nc(Cl)n2)c1	1.1
COc1ccc(Nc2oc(COc3cccc(C)c3)nc2C#N)cc1	-0.9

A portion of the library, and most or all hits are left out here.
